MT1-MMP act inh: blocks activation of human MT1-MMP | P50281 | HT1080 RFP-PRO-GFP cells, GFP/RFP ratio fluorescence, overnight; percent of plate control window, DMSO zero | GFP/RFP ratio change, % at 20 µM | hit rate 0.061% among 360,000;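 active = GFP/RFP ratio change of at least 30% with cell ATP level not reduced by more than half and red fluorescence within 50% of control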; also: strong numbers were not always called active
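Assay system: RFP-PRO-GFP reporter HT1080 cells; read-out basis: GFP/RFP fluorescence ratio; benchmarks: DMSO wells and RFP-L50D-GFP cells; doses: 20 µM single dose, 1% DMSO; schedule: overnight cell settling, then overnight compound exposure, 37 °C, 5% CO2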
Env fusion inh: inhibitors of HIV Env-mediated cell fusion; hit rate 1.1% among 360,000; AID 651610; inhibition, % at 12.3 µM; HeLa-JRFL Env/CEM21 cell fusion, luciferase;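 active = mean replicate inhibition score of at least 50 and every replicate individually at or above 50; inconclusive = only one of the two criteria met; inactive = mean below 50 and not all replicates reaching 50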;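 also: 0% = plate neutral controls and 100% = maraviroc near 300 nM; one replicate is shown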
PABP FP inh: blocks human PABP binding to poly(A) RNA | P11940 | fluorescence polarization | AID 2014 | inhibition, % at 35 µM | hit rate 1% among 290,000;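 active = 50% or more with normal probe brightness, or confirmed in later tests; inconclusive = above 50% with abnormal brightness, or retests that disagree; inactive = below 50% or failed in later tests; about a fifth of its hits are not listed in these tables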;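 also: calls also rest on retests at 20 µM and on dose response follow-up; controls were probe without protein and protein plus probe with vehicle; some compounds called inactive have numbers as strong as hits; many hits fall short of the cut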
eIF4H inh: inhibitors of RNA binding by human eIF4H; eIF4H fluorescence polarization binding assay; inhibition, % at 35 µM; hit rate 0.94% among 290,000; AID 2012;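 active = 50% or more with normal probe brightness, or confirmed in later tests; inconclusive = above 50% with abnormal brightness, or retests that disagree; inactive = below 50% or failed in later tests; about a fifth of its hits are not listed in these tables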;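 also: calls also rest on retests at 20 µM and on dose response follow-up; 0% = protein and probe with vehicle and 100% = probe without protein; strong numbers were not always called active; many hits fall short of the cut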
CSC inhib: cancer stem cell inhibition; hit rate 1.1% among 300,000; cancer stem cell-like cells viability, luminescence; inhibition, % at 7.5 µM;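 active = mean at 75% or more and at least half the replicates too; inconclusive = mean and replicates disagree; tested in HMLE shEcad cells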;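 also: 0% = median of negative and 100% = median of positive control wells; the first replicate is given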
UUG fidelity: yeast start codon fidelity modulation; S. cerevisiae UUG-firefly luciferase reporter, luminescence/redox ratio; hit rate 0.13% among 350,000; AID 602363; activity score, % at 18.7 µM;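 active = replicate mean at a twofold rise or more, about +100% in these data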;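 also: firefly luciferase made from a UUG start codon reports start codon fidelity; reporter light over untreated wells divided by growth signal over untreated wells; some hits fall short of that in this replicate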
Rce1 inh: yeast Ras-converting enzyme inhibition; yeast membranes, quenched prenylated peptide cleavage fluorescence; hit rate 0.27% among 290,000; AID 2563; calls only; Q03530;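 active = fall in fluorescence gain of 50% or more versus controls, with final raw signal at or below 3038400; inconclusive = same 50% fall but final raw signal above 3038400; inactive = fall in fluorescence gain under 50%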;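 also: plate controls were neutral control wells for no effect and wells lacking membranes for full effect; tested at 10 µM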
Target sequence (Q03530 whole entry, looked up): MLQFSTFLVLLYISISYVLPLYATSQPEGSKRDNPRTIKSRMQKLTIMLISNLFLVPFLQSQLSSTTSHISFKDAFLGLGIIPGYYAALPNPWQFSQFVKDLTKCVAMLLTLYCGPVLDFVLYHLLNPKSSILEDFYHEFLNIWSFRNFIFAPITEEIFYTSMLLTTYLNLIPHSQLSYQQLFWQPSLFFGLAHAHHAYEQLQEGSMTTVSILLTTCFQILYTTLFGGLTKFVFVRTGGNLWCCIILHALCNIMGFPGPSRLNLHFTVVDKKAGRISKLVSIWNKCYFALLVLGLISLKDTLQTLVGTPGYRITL
eIF4H inh retest: recorded beside eIF4H inh, whose call it bears; inhibition, %; compound at 20 µM; confirmation average;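 mean of two retest wells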
PABP FP inh retest: recorded beside PABP FP inh, whose call it bears; inhibition, %; compound at 20 µM; confirmation repeats;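 mean of two retest wells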
MT1-MMP act inh RFP: recorded beside MT1-MMP act inh, whose call it bears; RFP signal change, %; measured here: RFP expression control read;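 0 = vehicle wells; hits needed this value within 50% of zero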
An asterisk follows results filed as active; i = inactive; ? = inconclusive; . = not tested or not shown; [ ] = dose if it differs, or a comment. The list is partial; the hit share may differ from the screen's.

SMILES | MT1-MMP act inh | MT1-MMP act inh RFP | Env fusion inh | PABP FP inh | eIF4H inh | CSC inhib | UUG fidelity | Rce1 inh | others
COc1ccc(-n2c(=S)[nH]c3cc(C(=O)NCCCN4CCOCC4)ccc3c2=O)cc1 | -1 | -5 | 8 | 0 | -6 | -11 | -9 | .
COCC(=O)N1CCCN(c2nc3c(C)cccc3cc2C#N)CC1 | -9 | -4 | -92 | 14 | 5 | -7 | 1 | i
CCC1Oc2ccc(C)cc2N(CC(=O)NCCc2ccc(OC)c(OC)c2)C1=O (configuration not stated) | 2 | -1 | -7 | . | . | . | -6 | i
CCc1ccc(CNC(=O)CCc2nc(-c3cccs3)no2)cc1 | -1 | 1 | -8 | -2 | -6 | 6 | 5 | i
CO[C@@H]1CN(C)C(=O)c2cc(NC(=O)Nc3cc(F)ccc3F)ccc2OC[C@H](C)N(C(=O)c2cnccn2)C[C@@H]1C | -1 | 1 | 11 | . | . | . | -7 | .
CCN(c1ccccc1)S(=O)(=O)c1ccc(Cl)c(C(=O)NC2CCN(Cc3ccccc3)CC2)c1 | 2 | -16 | 14 | . | . | . | -15 | .
CCOC(=O)c1cc(CC)sc1NC(=O)CN1CCN(C(=O)C2CCCO2)CC1 (configuration not stated) | -1 | -4 | 4 | 18 | -2 | -7 | 12 | i
Cc1nc2nc(SCC(=O)c3ccc([N+](=O)[O-])cc3)[nH]c2cc1Br | 3 | -1 | -31 | -4 | -3 | -3 | -1 | i
Cc1ccc2cc(C#N)c(N3CCCN(S(=O)(=O)c4ccccc4)CC3)nc2c1C | -27 | 9 | . | . | . | . | -17 | i
O=C(CNC(=O)c1cccs1)Nc1ccc(N2CCOCC2)cc1 | 1 | 2 | -1 | . | . | -15 | -4 | .
Cn1cc(Br)c(C(=O)NNC(=O)c2ccc(Br)cc2)n1 | 2 | 3 | 12 | 12 | 2 | -14 | . | .
COc1ccc(CCNC(=O)C(=O)NCC2OCCN2C(=O)c2ccc(Cl)cc2)cc1OC (configuration not stated) | -1 | 4 | -2 | 7 | 5 | -21 | 3 | i
COc1ccc(Cn2ccnc2SCC(=O)Nc2ccccc2F)cc1 | 0 | -4 | -120 | 8 | -4 | -11 | -8 | i
Cc1cc(C)c2nc(NCc3ccccc3O)sc2c1 | 0 | -4 | -34 | -10 | -13 | 4 | -7 | i
O=C(Cn1ccc2ccccc2c1=O)NCCC(=O)N1CCN(c2cccc(Cl)c2)CC1 | 4 | 2 | -20 | -2 | -10 | 5 | 1 | i
Cc1cccc(NS(=O)(=O)c2cccc(C(=O)NCC3(N4CCCCC4)CCCCC3)c2)c1 | 2 | 0 | 1 | . | . | -14 | 5 | i
Cc1ccc(S(=O)(=O)N2CC(O)C[C@H]2C(=O)OCC(=O)c2ccccc2)cc1 (some centres not stated) | 3 | 3 | 25 | -12 | -3 | -16 | -8 | i
Cc1ccc(S(=O)(=O)Nc2cccc(-c3ccc(N4CCCCCC4)nn3)c2)cc1C | 4 | -7 | -64 | -2 | -11 | 18 | -4 | i
Cc1ccc(C(C)NC(=O)c2cccs2)cc1C (configuration not stated) | 4 | -3 | 4 | . | . | 14 | . | i
COc1ccc(OCc2cc(C(=O)N3C[C@H]4CC[C@H]3C4)no2)c(Cl)c1 | 0 | -2 | -28 | 4 | -6 | 10 | 5 | i
Cn1nccc1C(=O)N1CCN(c2ccc(F)cc2)CC1 | 5 | 1 | -38 | -8 | -9 | -12 | 17 | i
O=C1CN(C(=O)CN2CCN(S(=O)(=O)c3ccccc3)CC2)c2ccccc2N1 | 0 | 7 | 27 | . | . | . | -11 | .
COc1ccc(/C=C/C(=O)C2CC2)cc1COc1c(C)cccc1C | -5 | -5 | 25 | -7 | -3 | 48 | . | i
CCOC(=O)c1oc2ccccc2c1NC(=O)COc1cccc(OC)c1 | 4 | -3 | . | 3 | -7 | -7 | -7 | .
CCOC(=O)C1CCCN(c2c(C(=O)c3ccccc3)cnc3ccc(OC)cc23)C1 (configuration not stated) | 6 | -6 | 18 | -20 | -14 | -10 | 4 | i
O=C(Oc1ccc(-c2cnc3ccccc3n2)cc1)c1ccc(Br)o1 | 2 | -5 | . | 3 | 3 | . | -19 | i
CCOC(=O)c1ccccc1NC(=O)COC(=O)C(CCSC)NC(=O)COc1ccccc1 (configuration not stated) | 2 | -1 | . | . | . | -7 | -8 | i
CCCCNc1ccc(S(=O)(=O)c2cccc([N+](=O)[O-])c2)cc1[N+](=O)[O-] | 0 | 4 | 8 | -4 | -2 | 21 | . | i
O=C(O)c1cc(Cl)c(Cl)cc1C(=O)N1CCCC1 | -2 | -1 | 7 | -4 | -8 | -5 | 2 | i
CCOc1ccc(-c2c(C#N)c(N)nc3sc(C(=O)c4ccccc4)c(N)c23)cc1 | -121 | 2 | -2 | 19 | 37 | -1 | . | i
CCn1c(=N)n(CC(O)c2ccco2)c2ccccc21 (configuration not stated) | -17 | -2 | -45 | 6 | 11 | -12 | -12 | i
CC(=O)Oc1cc2oc(=O)c3c(c2cc1Cl)CCC3 | 3 | 3 | -49 | 1 | 2 | . | -6 | .
Cc1ccc(N(CC(=O)N/N=C/c2ccc(OC3CSC3)cc2)S(=O)(=O)c2ccccc2)cc1 | 3 | 3 | -108 | 2 | 4 | -2 | 7 | i
Cc1ccnc(N2CCC(C(=O)Nc3ccc(Oc4ccccc4)cc3)CC2)n1 | 1 | 3 | 1 | 1 | -2 | -7 | 23 | i
CCOc1cc(CNCCCN2CCOCC2)cc(Cl)c1OCC(=O)NC(C)(C)C | 4 | 1 | -11 | 4 | -12 | -5 | . | i
COc1ccc(NC(=O)C2(C)CCN2Cc2ccccc2OC(F)F)cc1OC (configuration not stated) | 6 | -7 | 71* | . | . | . | -4 | .
COc1ccc(/C=C/C(=O)Nc2ccccc2C(=O)O)cc1 | 3 | 4 | -15 | -13 | -5 | 7 | -18 | i
O=C(NCCc1c[nH]c2ccccc12)C1CCC(Cn2c(=S)[nH]c3ccccc3c2=O)CC1 (configuration not stated) | -8 | -17 | -21 | -1 | -6 | 76* | -20 | i
CC(=NC(C)C)C1=C(O)CCC1=O | 3 | 3 | . | 6 | -6 | 5 | -23 | i
O=C(O)CCSC(=S)N1CCOCC1 | -3 | 2 | 11 | 11 | -9 | -5 | 9 | i

Next section, overlapping the part above by five compounds.
SMILES | MT1-MMP act inh | MT1-MMP act inh RFP | Env fusion inh | PABP FP inh | eIF4H inh | CSC inhib | UUG fidelity | Rce1 inh | others
COc1ccc(NC(=O)C2(C)CCN2Cc2ccccc2OC(F)F)cc1OC (configuration not stated) | 6 | -7 | 71* | . | . | . | -4 | .
COc1ccc(/C=C/C(=O)Nc2ccccc2C(=O)O)cc1 | 3 | 4 | -15 | -13 | -5 | 7 | -18 | i
O=C(NCCc1c[nH]c2ccccc12)C1CCC(Cn2c(=S)[nH]c3ccccc3c2=O)CC1 (configuration not stated) | -8 | -17 | -21 | -1 | -6 | 76* | -20 | i
CC(=NC(C)C)C1=C(O)CCC1=O | 3 | 3 | . | 6 | -6 | 5 | -23 | i
O=C(O)CCSC(=S)N1CCOCC1 | -3 | 2 | 11 | 11 | -9 | -5 | 9 | i
N#CC1=C(N)Oc2cc3ccccc3cc2C1c1cccs1 (configuration not stated) | -20 | -14 | ? | ? | ? | -18 | -9 | i
O=C(CN1CCCC1)N1CCCc2ccccc21 | -4 | 2 | 8 | -4 | 10 | 11 | 14 | i
Cc1ccc(S(=O)(=O)Nc2ccc(C(N)=O)cc2)cc1[N+](=O)[O-] | 1 | 2 | -2 | 2 | 4 | . | . | i
COc1cccc(CNC(=O)c2cccc(S(=O)(=O)N3CCN(C)CC3)c2)c1 | -8 | -2 | . | 29 | -5 | -3 | 2 | i
CC(=O)NCCC(=O)Nc1cc(S(=O)(=O)N2CCOCC2)ccc1N1CCCC1 | -2 | 2 | -22 | . | . | 0 | -15 | i
CC(CNC(=O)COC(=O)c1cccnc1Cl)c1ccccc1 (configuration not stated) | 4 | 5 | -5 | . | . | . | -20 | .
CCC(=O)Nc1ccc2c(c1)OC[C@@H](C)NC[C@@H](C)[C@@H](OC)CN(C)C2=O | -1 | 4 | 3[16.7 µM] | . | . | . | -13 | .
Cc1cccc(NC(=O)/C(C#N)=C/c2ccc[nH]2)c1C | -6 | -2 | 2 | -1 | 0 | -3 | -18 | i
COC(=O)c1c(NC(=O)c2ccccc2C(=O)O)sc2c1CCC2 | -3 | 4 | 0 | 6 | -2 | -4 | -8 | i
CCOc1ccccc1N(CC(=O)NC1CCCCC1)C(=O)CCC(=O)Nc1cc(C)ccn1 | -3 | -4 | 1 | 2 | -25 | 7 | . | i
O=C(NCc1ccco1)c1cccn2c(=O)c3c4c(sc3nc12)CCCC4 | -8 | -5 | -111 | 25 | 21 | 21 | -17 | i
COc1ccc(NC(=O)NNC(=O)COc2ccc3cc(Br)ccc3c2)c(OC)c1 | -3 | -4 | 18 | -16 | 0 | 8 | -23 | i
COc1cc(/C=C/CN2CCN(Cc3ccc(C)o3)C(CCO)C2)ccc1O (configuration not stated) | 1 | 3 | -3 | -6 | -12 | -2 | . | i
CN(C(=O)CCc1nc2ccccc2s1)c1ccccc1 | -1 | 1 | . | -4 | -3 | . | -10 | i
COc1ccc(N/C=C2\C(=O)CCc3c2oc2cc(Cl)c(O)c(Cl)c32)cc1 | -12 | 1 | -11 | 118 | 84 | 36 | -7 | i | eIF4H inh retest=0;PABP FP inh retest=3
c1ccc(NC2=Nc3ccccc3CC2)cc1 | 4 | 5 | . | 3 | 5 | -6 | -16 | i
Cc1ccc(-c2c(C(=O)O)c3ccccc3[nH]c2=O)cc1 | -2 | 0 | 8 | 6 | -10 | -3 | -10 | i
CC(C)OC(=O)/C(=C\C=C\c1ccccc1)NC(=O)c1ccccc1 | -2 | -5 | . | -7 | -3 | -13 | -13 | i
COc1cc(/C=N/NC(=O)c2ccc(CSc3nncn3C)cc2)cc(OC)c1O | -1 | 0 | 16 | -11 | -10 | 6 | . | i
O=C(O)C1CCCN1S(=O)(=O)c1cc(Cl)ccc1Cl (configuration not stated) | 3 | 7 | . | -4 | 3 | -16 | -13 | i
CC(CC(=O)Nc1ccc(S(=O)(=O)Nc2ncccn2)cc1)c1ccccc1 (configuration not stated) | 0 | 1 | 14 | 6 | -7 | 4 | -15 | i
Cn1c(NCc2ccc3occc3c2)nc2cc(-c3ccc(F)cc3)sc2c1=O | -1 | -18 | 43 | . | . | . | -18 | .

An excerpt from the list above, as a working copy:
SMILES | MT1-MMP act inh | MT1-MMP act inh RFP | Env fusion inh | PABP FP inh | eIF4H inh | CSC inhib | UUG fidelity | Rce1 inh | others
COc1ccc(-n2c(=S)[nH]c3cc(C(=O)NCCCN4CCOCC4)ccc3c2=O)cc1 | -1 | -5 | 8 | 0 | -6 | -11 | -9 | .
COCC(=O)N1CCCN(c2nc3c(C)cccc3cc2C#N)CC1 | -9 | -4 | -92 | 14 | 5 | -7 | 1 | i
CCC1Oc2ccc(C)cc2N(CC(=O)NCCc2ccc(OC)c(OC)c2)C1=O (configuration not stated) | 2 | -1 | -7 | . | . | . | -6 | i

Assay outcomes deposited in PubChem by several laboratories.
